Bioassay records as filed in PubChem.
BJeLR viability – MLPCN primary cell-based screen for lethality selective to Ras in HRASV12 cells. 0.17% of 300,000 active. BJeLR (HRASV12) viability, CellTiter-Glo ATP luminescence, 48 h; reference of the scale not given here. AID 1554, 2009. inhibition, % (concentration not given with the values);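 active means replicate mean above 50%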;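 further: 50 nL library stock added to about 25 µL; numbers are from one replicate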
ugtP null kill – growth inhibition of ugtP-null S. aureus, primary screen, RN4220 ugtP deletion, OD600; 16 h; some inactives read as strong as hits; growth inhibition, % (no concentration beside the values); 0.54% of 330,000 active;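 active means z-score under -3 and OD600 up to 0.15 on both plates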;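 further: plate controls were untreated wells for no effect and antibiotic for full effect; wells of about 80 µL received 100 nL stock; the first replicate is given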
PrP UTR inh – inhibition of PrP 5' UTR reporter expression; cell-based PrP 5' UTR mRNA reporter, plate reader; inhibition, % (test concentration not listed); 0.35% of 340,000 active;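 active means every replicate at 50% or more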;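 further: 0 = median of the neutral control wells; tested in H4 reporter cells; numbers are from one replicate; inactives centre near -14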
Autofluor counter – counter-screen for toxin protease inhibitors: compound fluorescence | 3.1% of 360,000 active | fluorescence intensity (no concentration beside the values) | compound autofluorescence counterscreen, microsphere flow cytometry; active compounds read high;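 active means at least 3 SD above the mean of all compounds, about 16000 in these data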;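 further: 100 nL of 1 mM stock went into each well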
Mtb hypoxia rep – PubChem AID 1159583; fluorescence inhibition, % (test concentration not listed); M. tuberculosis hypoxia-regulated fluorescent reporter, fluorescence; 0.1% of 300,000 active;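 active means 35 to 45% if threefold the growth effect, above 45% if 1.5-fold the growth effect; inactive means the rest, general growth blockers included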;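 further: wells of about 50 µL received 100 nL stock; 0% = vehicle wells and 100% = reference inhibitor wells; whole bacteria with a GFP reporter of the hypoxia response; strong numbers were not always called active; many hits fall short of the cut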
Sa RN4220 lethal – growth inhibition of S. aureus RN4220, primary screen, OD600; inhibition, % (test concentration not listed); AID 1259311, 2017; 0.33% of 330,000 active; 16 h;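 active means z-score of -3 or lower and OD600 up to 0.18 on both plates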;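 further: plate controls were untreated cells for no effect and reference antibiotic for full effect; stock transfer was 100 nL into about 80 µL; one replicate is shown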
Mtb hypoxia rep growth – further read-out of Mtb hypoxia rep, marked with its call; growth inhibition, %; measured here: M. tuberculosis growth (absorbance);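 0% = vehicle and 100% = reference antibiotic; read after six days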
Numbers without * were called inactive; / = not tested or not shown; & = joins results of further samples.

Start of the data: the first 2 entries, ahead of the listing:
SMILES	BJeLR viability	ugtP null kill	PrP UTR inh	Autofluor counter	Mtb hypoxia rep	Mtb hypoxia rep growth	Sa RN4220 lethal
O=C(CSc1nc2c(c(=O)n1-c1ccc(Cl)cc1)SCC2)NCc1ccco1	-6	-2	-10	8874	5	6	4.2
Cn1c(/C=C/c2ccc(Cl)cc2)nc2ccccc2c1=O	-1	5	-49	3946	7	14	8.8

Main list, repeating the preview:
SMILES	BJeLR viability	ugtP null kill	PrP UTR inh	Autofluor counter	Mtb hypoxia rep	Mtb hypoxia rep growth	Sa RN4220 lethal
O=C(CSc1nc2c(c(=O)n1-c1ccc(Cl)cc1)SCC2)NCc1ccco1	-6	-2	-10	8874	5	6	4.2
Cn1c(/C=C/c2ccc(Cl)cc2)nc2ccccc2c1=O	-1	5	-49	3946	7	14	8.8
COc1ccc(C=NNc2nc3ccccc3c(=O)[nH]2)cc1	/	1	/	/	-2	0	3.3
COCCNC(=S)NC(=O)CC12CC3CC(CC(C3)C1)C2	4	-1	-6	6355	3	4	-0.8
Clc1ccc(-c2nnc(SCc3ccon3)o2)c(Cl)c1	1	5	-56	11476	/	/	6.1
COc1ccc(NC(=O)CSc2ccc(-c3ccccn3)nn2)cc1OC	16	2	-50	9038	3	2	-2.5
CC(=O)c1cc(C#N)c(SCCC(C)C)nc1C	4	70	/	13869	4	3	16
CN(C)C(=O)COC(=O)c1cc(Cl)cc(Cl)c1N	0	0	-19	7240	5	8	4.0
O=[N+]([O-])c1cc(Cl)ccc1Sc1cccc2cccnc12	-4	23	-26	4936	-1	6	-12
COc1cccc(NC(=O)C(Cc2ccccc2)NC(=O)C2CCC(C)CC2)c1 (stereo unspecified)	-13	-7	-16	7169	-5	10	-0.2
CCn1c(SCc2ccccc2F)nnc1-c1ccncc1	-3	2	-16	3931	3	4	1.3
O=C(COc1ccc(Cl)cc1)NCc1ccccc1	8	9	-9	3713	12	13	3.4
CCOc1ccc(C2=C/C(=C/c3cccnc3)C(=O)O2)cc1	2	-2	-8	3908	10	10	5.1
CC1=C(C(=O)N(C)C)C(c2ccc(Cl)c(Cl)c2)NC(=O)N1 (stereo unspecified)	2	5	-11	3292	-1	1	-7.0
CCC[C@H](CN[C@@H](CNC)[C@H](C)O)NCCc1ccc(OC)cc1	10	/	-19	2971	/	/	/
O=C(Oc1cc(Cl)ccc1Cl)C1=CC=CN2CCS(=O)(=O)N=C12	/	1	-14	8094	-2	-1	2.9
Cn1nc(C(=O)OCC(=O)NCc2ccc(Cl)cc2)c2ccccc2c1=O	/	4	-14	3114	31*	69*	3.8
Cc1[nH]c2ccc(-c3nnc(SCC(=O)c4ccc(F)cc4)o3)cc2c1C	-2	-3	-21	4207	12	5	4.0
O=C(NN=C1CC(c2ccccc2)Oc2ccccc21)C1CC1 (stereo unspecified)	/	-13	/	/	3	0	17
CCC(C)N1C(=O)CCC1C(=O)N1CCN(c2ccc(F)cc2)CC1 (stereo unspecified)	-2	-4	-23	10910	-10	-4	-4.8
CCCOc1ccc(C(F)(F)F)cc1NC(=O)CCc1c(C)noc1C	/	-2	-5	6543	7	-6	1.6
C/C=C1/CN2[C@@H]3C4CO[C@@H]3c3c([nH]c5cc(OC)ccc35)[C@@H]2CC14 (stereo partly specified)	-6	3	5	4983	/	/	1.4
CC(=O)N1CCN(c2cc(N3CCCC3)c(F)cc2[N+](=O)[O-])CC1	11	8	-12	3430	6	11	4.1
CN(CCOc1ccccc1)CC(=O)Nc1ccc(S(=O)(=O)N2CCCC2)cc1	12	11	-11	4110	7	2	6.0
Cc1ccc(N(CC(=O)Nc2c(C)cccc2C)S(C)(=O)=O)cc1	-16	10	-20	3599	0	4	-1.9
COCCNC(=O)c1cc(S(=O)(=O)N(C)c2ccccc2OC)ccc1C	8	-3	-15	/	-10	4	3.0
Cc1ccnc(-n2c(C)nc3ccccc3c2=O)c1	-1	0	-28	9907	0	7	2.6
COc1cc(C(=O)OCC(=O)Nc2ccc(F)cc2F)cc(OC)c1OC	1	-7	-8	20961*	10	10	0.1
CCN(CC)C(=O)C[n+]1cccc(/C=N/O)c1	-6	/	-23	1983	/	/	/
O=C(C1=CC(c2csc3ccccc23)CC(OCc2ccc(CO)cc2)O1)N1CCOCC1 (stereo unspecified)	/	3&2	/	/	20&15	8&0	6.2&4.1

Reformatted with two lines to a compound: entries from further up.
Order of results: BJeLR viability | ugtP null kill | PrP UTR inh | Autofluor counter | Mtb hypoxia rep | Mtb hypoxia rep growth | Sa RN4220 lethal
> Cn1nc(C(=O)OCC(=O)NCc2ccc(Cl)cc2)c2ccccc2c1=O
  / | 4 | -14 | 3114 | 31* | 69* | 3.8
> CCN(CC)C(=O)C[n+]1cccc(/C=N/O)c1
  -6 | / | -23 | 1983 | / | / | /

Later entries:
SMILES	BJeLR viability	ugtP null kill	PrP UTR inh	Autofluor counter	Mtb hypoxia rep	Mtb hypoxia rep growth	Sa RN4220 lethal
Cn1c2c(c(=O)n(C)c1=O)C(NC(=O)c1cccs1)(C(F)(F)F)C(=O)N2 (stereo unspecified)	/	7	-4	3357	/	/	3.5
O=C(COCC(=O)Nc1cccc(C(F)(F)F)c1)Nc1cccc(C(F)(F)F)c1	1	-39	-19	9741	-2	8	-4.2
COCCCNC(=O)c1c(NC(=O)c2ccccc2Cl)n(Cc2ccccc2)c2nc3ccccc3nc12	0	22	-11	18554*	17	2	9.6
COc1ccc(C(CNC(=O)c2ccc(-c3nc4ccccc4s3)o2)N2CCCC2)cc1 (stereo unspecified)	/	-6	-9	20254*	1	3	5.0
Cc1[nH]c2ccccc2c1-c1csc(NC(=O)CSCCO)n1	23	7	-37	4494	4	10	3.8
CCCCN1C(=O)/C(=C2/Sc3ccccc3N2C)SC1=Nc1ncn[nH]1	/	0	/	/	0	11	3.3
O=C(NC(N1CCOCC1)C(Cl)(Cl)Cl)c1ccco1 (stereo unspecified)	0	0	-14	5090	1	4	5.1
CCOC(=O)Cc1nnc(NC(=O)C(CC)Sc2nc(C)cc(=O)[nH]2)s1 (stereo unspecified)	2	6	-21	5825	9	10	6.6
COc1ccc(N(C(C)=O)c2nc3ccccc3[nH]2)cc1	-5	7	5	2990	3	0	5.4
Cc1cc(NC(=O)NCC(F)(F)F)no1	6	6	-12	3961	17	4	2.8
CC(=O)NS(=O)(=O)c1ccc(NC(=O)c2ccc3c(c2)OCO3)cc1	2	3	-16	4166	-4	7	3.1
O=C(NCc1ccccc1)C1=C[C@H](c2ccc(C(F)(F)F)cc2)C[C@H](OCCCCO)O1	-6	/	19	3015	/	/	/
CC(=NNC(=O)c1ccco1)c1ccc(NC(=O)c2cccs2)cc1	/	6	/	/	10	8	1.8
CC1CCN(C(=S)c2ccc(-c3ccc(Cl)cc3Cl)o2)CC1	-4	13	-42	2406	6	-12	0.2
CCN(C(=O)CSc1nnc(SC)s1)c1c(N)n(Cc2ccccc2)c(=O)[nH]c1=O	/	0	7	3759	-1	2	1.2
CCSc1nc2ccccc2n1CC(=O)N1CCCCC1	-6	-1	-28	3273	20	8	-9.0
O=C(NNC(=S)Nc1ccccc1)c1cccs1	5	6	-16	10880	3	-12	-0.1
Fc1cccc(NC(=S)N2CCCCC2)c1	10	-6	-29	4589	/	/	2.9
COC(=O)c1ccc(N(C(=O)c2ccco2)C(C(=O)NC2CCCC2)c2ccco2)cc1 (stereo unspecified)	0	1	-12	9971	-9	8	2.7
COc1ccccc1NC(=O)Cn1cnc2c(cnn2-c2ccc(C)c(C)c2)c1=O	3	-4	-11	2867	1	11	-13
O=C(C1CCN(Cc2ccc(OCc3ccccc3)cc2)CC1)N1CCCC1	-7	-2	-8	4567	6	15	1.2
O=C(CNC(=O)c1ccc(Br)o1)NCc1cccc(Cl)c1	-3	-1	-8	5597	3	-2	-0.5
COc1ccc(NC(=O)CCN2CCN(Cc3ccccc3)CC2)c(OC)c1	8	4	-8	3478	-2	-1	2.3
CCN(CC)S(=O)(=O)c1ccc(Cl)c(C(=O)NC2CCCC2)c1	8	1	-3	3170	15	-9	4.9
COc1ccc(-c2nc3c(-c4ccc(F)cc4)cnn3cc2C)cc1F	7	-1	-4	4348	-7	-5	11
O=C(N[C@@H]1CCC(=O)N(CC[C@H](Sc2ccccc2)c2ccccc2)CC1)OCc1ccccc1	-1	3	-13	4407	1	5	-4.3
CC12C=CC3(O1)C(C(=O)N(c1ccccc1)C3C(=O)NC1CCCC1)C2C(N)=O (stereo unspecified)	-13	11	-2	3390	7	7	3.3
CC(=C/c1ccc(C(C)C)cc1)/C=N/NC(=O)Cn1nc(C)cc1C	-1	/	1	2622	/	/	/
NC(=S)NN=Cc1ccc(-c2ccc([N+](=O)[O-])cc2)o1	/	13	/	/	/	/	9.8
O=C(O)C(C/C(=N/O)c1ccc(Br)cc1)P(=O)(c1ccccc1)c1ccccc1 (stereo unspecified)	-6	/	-19	5294	/	/	/
O=C(Cn1nc2n(c1=O)-c1ccccc1SC2)NN=Cc1cccnc1	/	4	/	/	5	4	4.6
Cc1c(CCO)c(=O)[nH]n1S(=O)(=O)c1ccc([N+](=O)[O-])cc1	-6	9	-12	5324	-4	-5	9.5
CCOC(=O)c1c(C)nsc1NC(=O)c1ccco1	-1	4	-14	3244	8	10	4.2
S=c1sc2ccccc2n1CCc1ccncc1	0	11	-9	3647	4	-11	8.5
COc1ccc(N(CC(=O)NC2CCCCCC2)S(=O)(=O)c2ccccc2)cc1Cl	5	-5	-9	6024	-4	-15	-2.0
CC1CCCCC1NC(=O)/C(C#N)=C/c1ccc(F)c(F)c1 (stereo unspecified)	8	/	-26	9421	/	/	/
COc1ccc(C2=Nn3c(nnc3-c3cc(C)[nH]n3)SC2)cc1	1	66	-17	4878	16	1	9.2
Cc1cccc(NS(=O)(=O)c2ccc(C3CCCCC3)cc2)c1	13	-16	-1	3704	3	9	-6.6
COC(=O)C1=C(c2cccc(OC)c2OC)C[C@@H]2CC[C@H]1N2C(=O)NC1CCCCC1	-4	/	-11	3880	/	/	/
Cc1c(C(=O)N2CCCCC2)c(S(=O)(=O)NCCc2ccccc2)c(C)n1C	15	1	-2	5101	14	-2	-2.2
CC1=C(Sc2ccccn2)C(=O)NC(C)(C)C1	-1	-1	-2	3350	0	-4	-0.8
Cc1ccc(C(=O)COC(=O)CCN2C(=O)C3C4CCC(C4)C3C2=O)cc1[N+](=O)[O-] (stereo unspecified)	-7	10	-11	5725	-5	-3	0.3
O=CNCC(=O)NC1CCCCCC1	-3	6	-19	7837	11	3	5.8
CN(Cc1nc(-c2cccs2)no1)CC(O)c1ccccc1 (stereo unspecified)	6	10	-18	3411	13	14	2.0
O=C1c2ccccc2C(=O)N1CCCCn1c(=O)oc2ccccc21	5	21	2	3403	/	/	8.5

Entries of single compounds from above:
Entry for `CCOC(=O)c1c(C)nsc1NC(=O)c1ccco1` → BJeLR viability: -1; ugtP null kill: 4; PrP UTR inh: -14; Autofluor counter: 3244; Mtb hypoxia rep: 8; Mtb hypoxia rep growth: 10; Sa RN4220 lethal: 4.2
Entry for `Cc1c(CCO)c(=O)[nH]n1S(=O)(=O)c1ccc([N+](=O)[O-])cc1` → BJeLR viability: -6; ugtP null kill: 9; PrP UTR inh: -12; Autofluor counter: 5324; Mtb hypoxia rep: -4; Mtb hypoxia rep growth: -5; Sa RN4220 lethal: 9.5

Later entries.
SMILES	BJeLR viability	ugtP null kill	PrP UTR inh	Autofluor counter	Mtb hypoxia rep	Mtb hypoxia rep growth	Sa RN4220 lethal
O=C(NN=Cc1cccc([N+](=O)[O-])c1)c1cc(-c2ccccc2)nc2ccccc12	/	-8	/	/	0	-2	-4.6
COC(=O)CCN(C1CCCCC1)S(=O)(=O)c1ccc(S(=O)(=O)N2CCCCC2)cc1	-2	-1	-10	10399	-9	-4	-2.6
COc1cccc(CC(C(=O)Nc2cc(C)ccc2C)c2nn[nH]n2)c1OC (stereo unspecified)	2	-13	-5	22565*	-4	6	-3.2
Cc1noc(C)c1NC(=O)N1CCN(Cc2ccccc2)CC1	3	2	-19	/	-8	-2	5.1
CC(NC(=O)c1ccc(NC(=O)CC2SC(N3CCCC3)=NC2=O)cc1)c1ccc(S(N)(=O)=O)cc1 (stereo unspecified)	4	-1	-10	/	0	-1	0.6
Cc1nc2ccccc2n2c(O)c(CC(=O)O)cc12	-4	-8	-12	9237	2	2	4.8
O=S(=O)(c1ccc(Cl)cc1)N1CCC(N2CCOCC2)CC1	8	-11	-13	8451	-18	3	-4.0
O=c1ccc2c(-c3ccccc3)c3ccc(O)cc3oc-2c1	13	6	/	6626	-37	-1	6.6
CCn1c(SCCOc2ccc(OC)cc2)nnc1C(CO)NC(=O)c1ccc(OC)cc1 (stereo unspecified)	7	1	-2	2242	/	/	-8.9
